Assay outcomes (PubChem BioAssay)
D2 agonist: Beta-Arrestin HTS for Positive Allosteric Modulators of the Human D2 Dopamine Receptor: Agonists | DiscoveRx PathHunter D2 beta-arrestin, luminescence, 90 min; 100% = 57 uM dopamine signal | activation, % (test concentration not listed) | D(2) dopamine receptor (Homo sapiens), P14416 | AID 624465, 2012 | 360,000 tested, 0.084% active; in the data active = activation above about 40%; inconclusive = about 15% to 40%; inactive = below about 15%; note: compound concentration not given in the record; the text of the record calls up to 30% inactive
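DiscoveRx PathHunter D2 beta-arrestin cells (2,100/well) attached overnight, then compound-stimulated 90 min at 37 C in HBSS/10 mM HEPES/0.1% Tween-20 buffer; beta-galactosidase complementation read by luminescence after 1 h at ambient temperature. Dopamine 57 uM final (EC100) as control.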
CtBP-E1A blk: qHTS Assay for Inhibitors of the CtBP/E1A Interaction; AlphaScreen GST-E1A/His-CtBP binding, 1536-well; hits give low values; control for the full effect not named in the record; CtBP / adenovirus E1A interaction (AlphaScreen); 340,000 tested, 0.49% active; activity change, % (concentration not given with the values); in the data active means activity change below about -65%; inconclusive means about -30% to -65%; inactive means above about -30%; note: % is set by controls: 0 for no effect and ±100 for the full control effect
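AlphaScreen with 125 nM GST-E1A and 125 nM His-CtBP (5X stocks) in Tris pH 8.0, 300 mM NaCl, BSA, Tween 20, TCEP. Compounds preincubated 2 h at 37 deg C, then glutathione donor/nickel acceptor beads added for 1 h at 37 deg C in dark.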
TRPML1 inh: qHTS for Inhibitors of the Human Mucolipin Transient Receptor Potential 1 (TRPML1); TRPML1-inducible cells, Ca2+ dye fluorescence, FDSS; hits give low values; inhibition of EC80 agonist-evoked calcium signal; AID 624415, 2012; 390,000 tested, 0.02% active; Mucolipin-1 (Homo sapiens), Q9GZU1; activity change, negative = inhibition, % (concentration not given with the values); in the data active means activity change below about -50%; inconclusive means about -30% to -50%; inactive means above about -30%;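 note: stimulus is agonist 54-4 at its EC80 concentration; % is set by controls: 0 for no effect and ±100 for the full control effect; compound concentration not given in the record; the text of the record puts the active cut at -80%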
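Tet-induced TRPML1-DL cells loaded with Ca8 no-wash calcium dye were read kinetically on FDSS. Compound addition was followed by EC80 agonist 54-4 (4 uM final); inhibition was read over 110 s.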
PINK1 modulator: A Quantitative High throughput Screen to Identify Chemical Modulators of PINK1 Expression | PINK1 immunofluorescence, high-content cytometry, 24 h | Potency, µM (top dose mostly 76.6 µM), without a hit: top-dose activation (PINK1 increase), most hits filed as activators | 410,000 tested, 0.2% active; active = well fitted activation curve with a large enough effect; inconclusive = small, poorly fitted or top-dose-only effect; inactive = flat fitted curve, though single readings scatter; cell line not stated here;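 note: potency is the fitted concentration of half-maximal effect; % of control where 0% means no effect; nearly all actives have a fitted effect of over 65% in size; a mitochondrial uncoupler was the plate control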
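Stable cell line treated 24 h with compounds at 5 concentrations (CCCP controls), then fixed and immunostained for PINK1 plus nuclear and cell stains; PINK1 immunofluorescence quantified by laser-scanning microplate cytometry.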
Six1-Eya2 inh: qHTS Assay for Inhibitors of the Six1/Eya2 Interaction; AlphaScreen GST-Six1/His-Eya2 binding, biochemical; hits give low values; control for the full effect not named in the record; activity change, % (concentration not given with the values); 360,000 tested, 0.56% active; AID 651725, 2012; in the data active = activity change below about -65%; inconclusive = about -30% to -65%; inactive = above about -30%; note: % is set by controls: 0 for no effect and ±100 for the full control effect
Target sequence (O00167 whole entry, looked up): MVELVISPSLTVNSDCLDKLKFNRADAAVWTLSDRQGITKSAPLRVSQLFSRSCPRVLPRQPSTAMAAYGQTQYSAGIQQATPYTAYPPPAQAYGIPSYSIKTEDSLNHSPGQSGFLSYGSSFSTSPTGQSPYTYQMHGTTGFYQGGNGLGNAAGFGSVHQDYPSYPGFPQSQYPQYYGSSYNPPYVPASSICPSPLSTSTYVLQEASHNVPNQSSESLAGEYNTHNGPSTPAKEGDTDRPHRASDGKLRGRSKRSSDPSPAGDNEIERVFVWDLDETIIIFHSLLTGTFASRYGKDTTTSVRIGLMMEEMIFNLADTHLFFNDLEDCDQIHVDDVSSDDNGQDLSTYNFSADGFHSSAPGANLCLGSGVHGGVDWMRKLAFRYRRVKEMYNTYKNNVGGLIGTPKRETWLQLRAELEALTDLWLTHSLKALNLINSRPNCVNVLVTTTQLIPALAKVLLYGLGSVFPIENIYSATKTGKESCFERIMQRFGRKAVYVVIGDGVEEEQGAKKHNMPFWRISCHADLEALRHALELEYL
Target sequence (Q15475 whole entry, looked up): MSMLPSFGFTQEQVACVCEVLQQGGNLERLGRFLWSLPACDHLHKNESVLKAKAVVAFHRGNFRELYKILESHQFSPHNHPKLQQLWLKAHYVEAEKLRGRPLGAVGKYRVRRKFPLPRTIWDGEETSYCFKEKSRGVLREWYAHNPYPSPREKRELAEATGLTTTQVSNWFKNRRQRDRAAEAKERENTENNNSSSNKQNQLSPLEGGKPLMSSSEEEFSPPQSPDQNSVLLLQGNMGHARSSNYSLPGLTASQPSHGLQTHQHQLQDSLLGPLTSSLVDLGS
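AlphaScreen luminescence read after one hour at 37 °C in darkness. Pin-transferred compounds met GST-Six1 and His-Eya2 protein (5X stock 250 nM/500 nM) plus glutathione donor and Ni-chelate acceptor beads (5X, 50 ug/mL).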
TRPML1 ag: qHTS for Agonists of the Human Mucolipin Transient Receptor Potential 1 (TRPML1). Mucolipin-1 (Homo sapiens), Q9GZU1. TRPML1-expressing cells, Ca2+ dye fluorescence, FDSS; host cell line not named in the record; reference of the full effect not given here. 410,000 tested, 0.12% active. activation, % (test concentration not listed); in the data active = activation above about 50%; inconclusive = about 30% to 50%; inactive = below about 30%; note: 0% is about no effect; the text of the record puts the active cut at 80%
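In this qHTS format, compounds were pin-transferred onto Ca8-dye-loaded TRPML1-DL cells induced with Tet overnight, and intracellular Ca2+ fluorescence was recorded kinetically for 110 s after a 10 s baseline. A subsequent 4uM final 54-4 (EC80) addition followed by a second 110 s read served as the antagonist phase.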
* hit, by the source's call; ? = inconclusive; · = no result given; & = joins results of further samples; [ ] = remark or other dose.

SMILES | D2 agonist | CtBP-E1A blk | TRPML1 inh | PINK1 modulator | Six1-Eya2 inh | TRPML1 ag
CN(c1ccccc1)S(=O)(=O)c1ccc(Cl)nc1 | -4.2 | 15.5 | 16.1 | -0.4% | 15.2 | -0.6
C[C@H](CO)N1C[C@H](C)[C@@H](CN(C)C)Oc2c(NS(=O)(=O)c3ccccc3)cccc2C1=O | -3.9 | 3.1 | 9.4 | 1.3% | 6.3 | 0.4
CC(C)c1ccc(NC(=O)C(c2ccccc2)N(Cc2ccco2)C(=O)CC2NC(=O)NC2=O)cc1 (stereo not given) | -0.5 | -1.7 | 25.3 | 0.3% | -3.2 | 2.1
CC(=O)Nc1ccc(C2NC(=O)c3ccccc3O2)cc1 (stereo not given) | -2.7 | -0.9 | -0.5 | -1.4% | 3.7 | -0.6
Cc1cc(CCC(=O)O)c(C)cc1CCC(=O)O | -3.3 | 4.6 | 13.5 | 0.5% | -15.0 | 0.3
COc1ccc(S(=O)(=O)NC(CC(=O)N2CCc3ccccc32)c2ccco2)cc1 (stereo not given) | -0.2 | -10.1 | 14.0 | 4.4% | -9.7 | 0.5
CN(C1CCCCC1)S(=O)(=O)c1ccc2c(c1)c(=O)c(C(=O)NCc1ccccc1Cl)cn2C | · | · | 46.6 | 1.2% | · | -1.0
CC1(C)OCC(CNC(=O)c2[nH]c(C(F)(F)F)nc2-c2ccccc2)O1 (stereo not given) | -2.9 | -22.4 | · | 1.8% | ? | -0.2
Cc1cccc(NC(=O)c2cc(S(=O)(=O)NCc3ccc4c(c3)OCO4)ccc2F)c1C | · | · | 14.3 | 10.1% | · | 2.9
Cc1ccccc1CN1CCNC(=O)C1CC(=O)NCCC1=CCCCC1 (stereo not given) | -0.8 | 5.9 | -5.5 | 0.5% | -8.1 | 0.1
Cc1c2c(cc3c1[nH]c1ccccc13)C=NCC2 | -1.0 | -10.9 | 10.0 | -3.0% | -2.1 | 2.3
O=C(c1ccc(N2C(=O)c3ccccc3C2=O)cc1)N1CCCCC1 | 1.8 | 8.8 | 7.6 | -0.4% | 5.4 | -0.3
Cc1cc(NS(=O)(=O)c2ccc(NC(=O)c3ccc([N+](=O)[O-])cc3)cc2)nc(C)n1 | 11.5 | 1.9 | -10.5 | 5.1% | -0.8 | 0.0
Cc1ccc(N(CC(=O)NCC2CCCO2)C(=O)CCC(=O)Nc2nccs2)cc1 (stereo not given) | -4.5 | 0.3 | 2.4 | 5.0% | 11.4 | 0.6
CC(=O)Nc1cc(F)c2c(c1F)Cc1cc(F)ccc1-2 | -0.4 | 5.3 | -1.5 | 0.5% | 5.3 | 0.4

The list goes on, overlapping the part above by two compounds.
SMILES | D2 agonist | CtBP-E1A blk | TRPML1 inh | PINK1 modulator | Six1-Eya2 inh | TRPML1 ag
Cc1ccc(N(CC(=O)NCC2CCCO2)C(=O)CCC(=O)Nc2nccs2)cc1 (stereo not given) | -4.5 | 0.3 | 2.4 | 5.0% | 11.4 | 0.6
CC(=O)Nc1cc(F)c2c(c1F)Cc1cc(F)ccc1-2 | -0.4 | 5.3 | -1.5 | 0.5% | 5.3 | 0.4
O=C(/C(=C(/[O-])c1ccccc1)[n+]1ccccc1)c1ccc([N+](=O)[O-])cc1 | -4.2 | 3.7 | 15.6 | 3.9% | -0.6 | -0.1
CCOC(=O)C1CCCN(S(=O)(=O)c2ccc3c(c2)N(C(C)=O)CCO3)C1 (stereo not given) | 8.1 | 5.2 | 0.7 | 1.9% | 18.7 | -1.2
CS(=O)(=O)NCCc1csc2nc(-c3ccccc3)nn12 | · | · | -25.0 | 1.4% | · | 1.9
O=C(Nc1ccccc1)Nc1cc(OCC(F)(F)F)cc(OCC(F)(F)F)c1 | 4.7 | 14.3 | 8.3 | 1.7% | 8.6 | 1.7
CCOn1c(-n2nc(C)cc2C)nc2ccccc2c1=O | -3.1 | 6.8 | -4.6 | 1.3% | 2.9 | 0.1
Cc1onc(-c2ccccc2)c1C(=O)NNC(=S)NC(=O)c1ccc(Cl)cc1Cl | -2.6 | -8.3 | 17.7 | 5.3% | -1.8 | 91.1*
COc1ccc(C2=CC(=O)C[C@H](c3ccc(F)cc3)C2)cc1F | -10.6 | -8.2 | 2.9 | 1.1% | -9.9 | 3.3
O=C(Cn1cncn1)N/N=C/c1cccnc1 | -3.1 | 1.7 | 5.6 | -0.2% | -16.2 | -0.1
Cc1ccc(CCNC(=O)c2ccc3c(c2)N(Cc2ccc(F)cc2)CCS3)cc1 | · | · | -19.1 | -0.1% | · | 0.0
Cc1c(C(=O)NCc2ccco2)sc2nc(-c3ccccc3)cn12 | -2.9 | -27.5 | 11.7 | 3.2% | -24.2 | -0.7
COC(=O)COc1ccccc1C(N)=O | -2.2 | 3.1 | -10.0 | · | 1.6 | 0.0
CS(=O)(=O)c1ccc(-c2nnc(NC(=O)c3cccc(N4C(=O)CCC4=O)c3)o2)cc1 | -0.5 | -22.3 | 21.2 | 3.2% | -26.2 | -0.1
Cc1cccc(S(=O)(=O)CC(=O)Nc2nc(-c3ccccc3)cs2)c1 | 1.1 | -2.9 | 4.2 | 8.4% | -0.9 | 1.1
Cc1nc(C(C)NC(=O)c2cc(COc3ccc(C)c(C)c3)on2)c(C)s1 (stereo not given) | -1.0 | · | 11.2 | 1.0% | 2.2 | 1.3
CCOC(=O)N1CCN(Cc2nc(Cc3cccc(F)c3)no2)CC1 | -0.3 | 13.5 | 0.4 | 1.6% | -18.3 | 0.8
Cc1nc(C)c(-c2csc(NCc3ccccc3)n2)s1 | -3.6 | -0.7 | -7.8 | -2.1% | -8.8 | 0.4
COc1c(O)cc(O)c2c(=O)cc(-c3ccccc3)oc12 | -4.6 | -13.4 | · | 0.8% | -8.0 | ·
CCOC(=O)N1CCN(C(=O)C[C@@H]2C[C@@]3(C(=O)OC)CCCCC=C3N(Cc3ccc(Cl)cc3Cl)C2=O)CC1 | · | -5.4 | · | 1.4% | -4.9 | -0.9
Cc1cccc(NC(=O)Cn2nnc(C(=O)Nc3ccc(F)c(Cl)c3)c2N)c1 | -4.3 | · | -5.2&22.9 | 0.6%&-5.5% | 5.9 | 1.5&2.1
COc1ccc(N(CC(=O)NCCC2=CCCCC2)S(=O)(=O)c2ccccc2)cc1OC | 2.8 | -2.9 | 6.6 | -1.2% | 0.0 | 2.1
Cc1ccc(NC2=NCC(=O)N2C2CCCC2)c(C)c1 | 0.3 | 10.6 | 33.6 | 9.9% | 2.9 | 0.6
COc1cccc(N2C(=O)C(CC(=O)Nc3cccc(F)c3)N(C3CCCC3)C2=O)c1 (stereo not given) | · | · | 7.0 | 5.9% | · | -0.3
O=C(CCCn1c(=S)[nH]c2cc3c(cc2c1=O)OCO3)N1CCN(C2CCCCC2)CC1 | 0.5 | -5.7 | -1.7 | -1.2% | -4.7 | 2.1
CCCN(CCC)C(=O)CSc1ncccc1C(=O)O | -0.5 | 3.8 | -7.0 | 8.3% | 7.8 | 0.5
Cc1ccc(C(=O)OCCc2c(C)[nH]n(-c3ccccc3)c2=O)cc1 | -2.1 | -4.4 | 1.0 | -1.3% | -1.8 | 6.4
Fc1ccccc1Cn1c2[n+](c3ccc(C(F)(F)F)cc31)CCCCC2 | -2.2 | -9.7 | 4.4 | 0.9% | 3.6 | 0.1
CC(C)C(=O)Nc1oc(-c2ccccc2)cc1C#N | 3.8 | 0.0 | 43.5 | -1.2% | 1.9 | 1.0
CC(C)c1nnc(NC(=O)C2CCN(C(=O)Nc3ccc(Cl)cc3)CC2)s1 | 0.7 | -9.1 | 26.1 | -0.4% | 1.9 | 0.7
O=C(CSc1nnc(SCC(=O)NCc2ccc3c(c2)OCO3)s1)NCc1ccc2c(c1)OCO2 | -1.4 | -1.2 | 4.8 | 3.8%[38.3 µM] | 2.2 | 0.0
C=CCNC(=O)c1ccccc1NC(=O)c1ccc(Cl)c(S(=O)(=O)Nc2cccc(C)c2C)c1 | -1.3 | 25.7 | 8.5 | 1.8% | 3.6 | 0.7
N#Cc1ccccc1S(=O)(=O)c1ccccc1C(=O)Nc1ccccc1 | -6.3 | -4.9 | 0.1 | 1.5% | 9.2 | 0.6
CN(C)CCNC(=O)C(=O)NCC1OCCCN1S(=O)(=O)c1cccs1 (stereo not given) | -0.1 | 3.9 | -13.5 | 1.2% | -1.8 | 0.2
Oc1ccccc1/C=C/c1noc(-c2ccccc2O)n1 | -1.7 | 14.9 | -7.4 | 9.4% | 6.6 | -0.5
CC1=Nc2cc(C(=O)O)ccc2Sc2ccc(Br)cc21 | -7.3 | 2.4 | -9.4 | -1.2% | -1.6 | 0.1
O=c1[nH]c2ccc(NCc3ccc(-c4ccccc4F)o3)cc2[nH]1 | · | · | 5.4 | -0.5% | · | -0.4
COc1ccc(-c2nc(C)c(CCNC(=O)C(=O)Nc3cccc(F)c3)s2)cc1OC | · | · | -4.2 | 11.3% | · | 4.1
COc1ccc(NC(=O)CC23CC4CC(CC(Br)(C4)C2)C3)c(OC)c1 | 5.5 | 1.0 | 22.1 | -0.1% | 7.7 | 3.8
O=c1cc(C(F)(F)C(F)F)oc2ccccc12 | -1.0 | 9.7 | -8.6 | · | 5.8 | 0.3
CCOc1ccc(NS(=O)(=O)c2c(C)nc3sc(CC)nn3c2=O)cc1 | 2.1 | -0.9 | 14.7&6.9 | 0.2%&-0.5% | -0.3 | -0.6&1.4
Cc1cc2cc(CN(CC3CCCO3)C(=S)Nc3ccccc3)c(=O)[nH]c2cc1C (stereo not given) | -3.0 | -0.7 | -8.2 | 8.3% | -13.0 | 1.3
COc1ccc(NC(=O)CCC(=O)c2cccs2)cc1Cl | -0.7 | 10.3 | 1.1 | 1.7% | 16.6 | -0.7
O=C(Cn1[nH]c(=O)c2ccccc2c1=O)OCC(=O)c1ccc(Br)cc1 | -7.3 | -8.1 | 11.5 | 4.6% | 2.9 | 1.7
Cc1cc(C)c(NC(=O)c2oc3c(c2C)-c2[nH]ncc2CC3)c(C)c1 | · | · | 8.6 | -0.1% | · | 3.1
CCOc1ncccc1C(=O)NNC(=O)c1ccc(NS(=O)(=O)c2cccs2)cc1 | 1.6 | -6.8 | -11.4 | -1.0% | 0.5 | -0.3

An excerpt from above, limited to TRPML1 ag and CtBP-E1A blk:
compound | TRPML1 ag | CtBP-E1A blk
CCOC(=O)N1CCN(C(=O)C[C@@H]2C[C@@]3(C(=O)OC)CCCCC=C3N(Cc3ccc(Cl)cc3Cl)C2=O)CC1 | -0.9 | -5.4
Cc1cccc(NC(=O)Cn2nnc(C(=O)Nc3ccc(F)c(Cl)c3)c2N)c1 | 1.5&2.1 | ·
